E coli growth = E. coli growth inhibition | Escherichia coli growth, OD600, 23 h; hits give low values | OD600 absorbance (test concentration not listed) | 0.21% of 330,000 active | AID 1053175;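 active = OD600 absorbance below the run mean of sample wells minus 3.6 SD, in any replicate, cut at about 0.56 in these data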;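 also: stock transfer was 300 nL into about 60 µL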
MLL AF4-AF9 inh = inhibitors of human MLL-AF4/AF9 interaction; P42568; AlphaScreen, biotin-AF4 peptide binding to FLAG-AF9; inhibition, % at 10 µM; 0.47% of 350,000 active;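 active = every replicate reaching a set inhibition limit, whatever the replicate mean, cut at about 25% in these data; inconclusive = mean inhibition reaches that limit but some replicates miss it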;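 also: 0% = plate neutral control median and 100% = total signal loss; the record names both 10 and 1 µM as test concentration; the first replicate is given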
Target sequence (P42568 whole entry, looked up): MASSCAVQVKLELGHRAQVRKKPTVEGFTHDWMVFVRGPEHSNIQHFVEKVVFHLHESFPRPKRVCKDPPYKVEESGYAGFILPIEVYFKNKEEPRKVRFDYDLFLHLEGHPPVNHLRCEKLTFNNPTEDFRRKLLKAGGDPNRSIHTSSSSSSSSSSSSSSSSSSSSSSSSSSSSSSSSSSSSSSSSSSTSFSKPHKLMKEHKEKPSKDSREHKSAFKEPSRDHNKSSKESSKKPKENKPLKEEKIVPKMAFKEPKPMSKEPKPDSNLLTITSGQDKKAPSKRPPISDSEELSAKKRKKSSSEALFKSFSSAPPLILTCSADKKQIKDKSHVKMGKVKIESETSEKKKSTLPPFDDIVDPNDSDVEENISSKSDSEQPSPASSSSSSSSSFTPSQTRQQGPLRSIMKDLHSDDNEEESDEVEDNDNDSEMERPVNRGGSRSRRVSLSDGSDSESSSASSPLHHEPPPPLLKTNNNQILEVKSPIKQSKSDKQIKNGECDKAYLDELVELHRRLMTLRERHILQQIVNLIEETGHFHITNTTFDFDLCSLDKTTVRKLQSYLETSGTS
FGF22 binding = binders of recombinant human FGF22 by thermal shift | Q9HCT0 | SYPRO orange fluorescence; percent of sucrose octasulfate shift, DMSO zero | calls only at 9.99 µM | 1.5% of 340,000 active;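 active = melting point raised past a set limit in the mean and every replicate; inconclusive = no clear call; three in four hits are not shown here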
Target sequence (Q9HCT0 whole entry, looked up): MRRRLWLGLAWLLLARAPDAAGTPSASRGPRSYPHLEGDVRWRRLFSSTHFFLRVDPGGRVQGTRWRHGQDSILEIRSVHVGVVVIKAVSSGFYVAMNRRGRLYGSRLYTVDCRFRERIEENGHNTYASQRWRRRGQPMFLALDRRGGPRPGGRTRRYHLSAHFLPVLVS
HNF4A DNA FP = change in binding of human HNF4 alpha to DNA | P41235 | HNF4a-FITC DNA binding, fluorescence polarization, 1 h | activity change, % at 10 µM | 0.3% of 360,000 active | AID 1224865; in the data active = activity change above about 30%, passing the limit was not always enough;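 also: controls were the assay level and a saturating level of protein; the project sought stronger binding though the title names inhibitors; some compounds called inactive have numbers as strong as hits; positive values seem to mean higher polarization but the record does not say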
Vif A3G = HIV-1 Vif–A3G interaction blockers – biochemical, TR-FRET, GST-Vif 1-94, biotin-A3G peptide, dose response retest, primary screen (AID 1117319) | TR-FRET GST-Vif / biotin-A3G peptide binding; higher % means a stronger effect; test concentration not given here; strong numbers were not always called active | inhibition, %, or IC50 in µM where a hit was titrated | 0.57% of 260,000 active;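 active = above the screen mean plus three standard deviations and confirmed in dose response; inconclusive = results disagree or hit not tested in dose response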;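 also: Vif residues 1-94 fused to GST binding biotinylated APOBEC3G peptide 110-148; 0% = full assay without inhibitor and 100% = GST in place of GST-Vif; retest series ran down from 100 µM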
RanGTP-Impb inh = inhibitors of RanGTP-importin-beta interaction, primary screen, biochemical, FRET, CFP-Ran, YFP-importin-beta, homogeneous; inhibition, % (concentration not given with the values); 1.1% of 300,000 active; AID 2216; cell-free CFP-Ran/YFP-importin-beta FRET ratio;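 active = most replicates above 15%; inconclusive = exactly half above 15%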;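 also: 0% = DMSO wells and 100% = Ran loaded with GDP instead of GTP; wells of about 40 µL received 100 nL stock; the first replicate is given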
UCH37 inh = inhibitors of human deubiquitinating enzyme UCH37; purified proteasome/UCH37, Ub-AMC cleavage fluorescence; inhibition, % (test concentration not listed); Q9Y5K5; 0.33% of 330,000 active;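 active = mean of two replicates above 20%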;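 also: 0% = compound-free wells with enzyme and 100% = wells lacking proteasome; stock transfer was 100 nL into about 20 µL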
Target sequence (Q9Y5K5 whole entry, looked up): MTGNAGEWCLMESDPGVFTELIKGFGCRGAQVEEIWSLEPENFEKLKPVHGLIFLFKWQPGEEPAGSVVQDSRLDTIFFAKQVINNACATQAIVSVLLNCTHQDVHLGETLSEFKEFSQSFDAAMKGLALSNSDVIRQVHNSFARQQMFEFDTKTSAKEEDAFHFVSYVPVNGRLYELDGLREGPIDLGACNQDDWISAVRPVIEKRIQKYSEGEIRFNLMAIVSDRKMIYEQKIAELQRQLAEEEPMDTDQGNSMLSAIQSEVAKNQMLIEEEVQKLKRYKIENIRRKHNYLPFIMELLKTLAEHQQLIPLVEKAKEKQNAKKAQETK
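Reagent: Ub-AMC substrate; assay system: Proteasome-associated human UCH37 deubiquitinase; controls: no-proteasome and no-compound wells; read-out: % inhibition of Ub-AMC cleavage fluorescence; timing: 30 min preincubation with enzyme, 25 min cleavage at room temperature; signal: AMC fluorescence from Ub-AMC cleavage, excitation 355 nm, emission 460 nm; buffer or medium: Tris-HCl pH 7.4 plus ovalbumin, ATP-MgCl2, DTT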
Numbers without * were called inactive; i = inactive; ? = inconclusive; / = no result given; & = joins results of further samples. Only part of the results is shown, so the mix of outcomes need not match the whole.

Every second line gives: E coli growth	MLL AF4-AF9 inh	FGF22 binding	HNF4A DNA FP	Vif A3G	RanGTP-Impb inh	UCH37 inh
> NC(=O)C1CCN(c2c([N+](=O)[O-])cc(C(F)(F)F)cc2[N+](=O)[O-])CC1
  0.66	0.2	i	-0.3	?	-0.5	6.6
> CC(C)c1ccc(/C=C2\SC(=S)N(CCC(=O)N3CCCCC3CCO)C2=O)cc1 (centres undefined)
  0.73	3.9	i	7.3	/	-0.4	9.9
> COc1ccccc1/C=C1/SC(=S)N(CCC(=O)Nc2cccnc2)C1=O
  0.71	-9.3	i	2.2	/	7.4	7.6
> Cc1ccc(CS(=O)Cc2ccc(C(=O)N3CCOCC3)o2)cc1 (centres undefined)
  0.66	-0.3	i	-6.9	/	-3.4	1.7
> CCCCN(C(=O)c1ccc(Cl)c([N+](=O)[O-])c1)c1c(N)n(CCC)c(=O)[nH]c1=O
  0.7	-5.5	i	5.2	-1%	0.2	5.6
> CC(=O)Nc1ccc(C(=O)N2CCOCC2c2cc(C(=O)NCc3ccccc3)no2)cc1 (centres undefined)
  /	-0.5	i	1.1	/	/	/
> Cc1cc(C)cc(N(CC(=O)NCCSCc2ccccc2)S(C)(=O)=O)c1
  0.64	-1.4	i	-2.1	0%	-0.2	3.1
> Cc1cc(C)cc(NC(=O)c2ccc(NC(=O)c3ccco3)cc2)c1
  0.72	-1.3	i	4.4	/	-1.3	-1.6
> CCc1ccccc1OCc1nnc(N)s1
  0.66	/	/	-0.7	?	-3.5	4.7
> CCCCC(=O)Nc1ccccc1N1CCN(c2ccc(F)cc2)CC1
  0.66	0.4	i	-0.9	/	-1.8	0.6
> CC(=O)N1N=C(c2cccc(Br)c2)OC12CCCC2
  0.68	-0.4	i	2.4	/	?	-25
> CCOc1ccc(N(CC(=O)NCCc2ccccc2)S(=O)(=O)c2ccccc2)cc1
  0.69	0.2	i	1.2	/	6.4	-0.6
> CC(=O)Nc1ccc(NC(=O)C2CC(=O)N(Cc3ccco3)C2)cc1 (centres undefined)
  0.64	-0.3	i	-2.0	-1%	/	-0.9
> N#Cc1c(/N=C/c2ccco2)oc(-c2ccccc2)c1-c1ccccc1
  /	/	/	-2.9	-2%	-1.8	/
> O=C(CNC1CCCCCC1)Nc1ccccc1N1CCOCC1
  0.7	-1.0	i	-1.6	1%	-0.7	1.5
> O=C(NCCc1c[nH]c2ccccc12)c1ccc(F)cc1F
  0.67	3.4	i	-1.0	/	0.3	1.1
> COC(=O)c1[nH]c(C)c(/C(O)=C2\C(=O)C(=O)N(CCN(C)C)C2c2cccs2)c1C (centres undefined)
  0.71	/	/	1.2	2%	?	13
> CCCCCn1c(=O)[nH]c2cc(C(=O)NCc3ccco3)ccc2c1=O
  0.77	/	/	3.0	18%	?	-39
> O=C(C1CCCCC1)N1CCCn2c1nc1ccccc12
  0.74	/	/	-0.8	-1%	?	-1.5
> CN1CCC(=O)N([C@H](CSc2ccccc2)Cc2ccccc2)CC1
  /	3.0	i	2.2	/	-3.7	-2.0

Structural class, the compounds so far containing a nitro group on carbon (2)
Every second line gives: E coli growth	MLL AF4-AF9 inh	FGF22 binding	HNF4A DNA FP	Vif A3G	RanGTP-Impb inh	UCH37 inh
> NC(=O)C1CCN(c2c([N+](=O)[O-])cc(C(F)(F)F)cc2[N+](=O)[O-])CC1
  0.66	0.2	i	-0.3	?	-0.5	6.6
> CCCCN(C(=O)c1ccc(Cl)c([N+](=O)[O-])c1)c1c(N)n(CCC)c(=O)[nH]c1=O
  0.7	-5.5	i	5.2	-1%	0.2	5.6

Continued:
Every second line gives: E coli growth	MLL AF4-AF9 inh	FGF22 binding	HNF4A DNA FP	Vif A3G	RanGTP-Impb inh	UCH37 inh
> Cc1ccc(S(=O)(=O)C(C#N)c2nc3ccccc3nc2N2CCN(C)CC2)cc1C (centres undefined)
  0.67	/	/	-6.1	2%	94*	-69
> Cc1nc2nc(NCc3cccs3)nn2c(C)c1Cl
  0.73	/	/	3.3	6%	1.1	-88
> NC(=O)c1ccc(Sc2nnc(-c3cccs3)n2CC2CCCO2)c([N+](=O)[O-])c1 (centres undefined)
  0.65	-2.7	i	-0.9	/	0.6	5.4
> COCCN(Cc1ccccc1)C(=O)c1ccc2c(=O)n3c(nc2c1)CCC3
  0.66	0.7	i	-1.2	1%	1.7	-0.2
> Fc1ccc(-c2nc3ccc(Cl)cn3c2Cc2cccc(F)c2)cc1
  /	-3.0	i	2.3	/	/	/
> Cc1nn(C)c(C(=O)NN)c1Cl
  0.71	-1.7	i	5.5	/	3.9	4.8
> O=C(CSc1nnc(-c2ccccc2O)o1)N1CCCCC1
  0.7	-1.7	/	2.4	/	-1.5	0.2
> CCOc1cc(/C=C2\CCCC(C(=O)C(F)(F)F)=C2O)ccc1O
  0.68	/	/	6.5	?	1.9	2.4
> O=C(Nc1nc(OCC(F)(F)F)cnc1/C=C\c1ccccc1)c1ccsc1
  /	-2.6	i	-2.1	/	/	/
> CC(=O)C[C@@H](O)CC(=O)[C@@H]1OC(=O)CCCCC/C=C/Cc2ccccc21
  0.72	4.4	i	0.0	/	/	2.5
> Nc1c(NCCCN2CCOCC2)c2ccccc2oc1=O
  0.64	2.4	i	-0.9	1%	-1.5	4.4
> CNC(=O)N(O)C1N(/N=C/c2ccc(N(C)C)cc2)C(=S)SC1(C)C (centres undefined)
  /	-2.4	i	0.1	-1%	-2.6	/
> N#Cc1c(C#N)c(-c2ccccc2)n(-c2ccc(C(=O)O)cc2)c1N
  0.73	/	/	2.5	2%	1.4	-0.2
> CCOC(=O)c1c(C)c(C(=O)NCC2CCCO2)c(C)n1CC (centres undefined)
  0.71	-1.1	i	-2.6	1%	-1.0	3.8
> O=C(Nc1ccc(Cl)c(S(=O)(=O)N2CCOCC2)c1)c1ccccc1-c1ccc(C(F)(F)F)cc1
  0.71	/	/	-0.5	4%	-3.0	3.7
> C=CCn1c(SCC(=O)Nc2sccc2C(N)=O)nc2ccccc2c1=O
  0.7	/	/	3.3	14%	19*	0.1
> COC(=O)c1sc(S(=O)(=O)N2CCCCC2)c(C(=O)OC)c1C
  0.7	/	/	0.3	5%	-0.6	0.7
> Cc1nn(C)c(C)c1NC(=O)CCSc1nc(-c2ccco2)cc(C(F)(F)F)n1
  0.71	/	/	1.4	12%&1%	5.2	1.5
> O=C(NCc1ccco1)c1cccc2c1C(=O)c1ccc(N3CCCC3)cc1S2(=O)=O
  0.7	3.3	i	52*	/	/	5.1
> Cc1ccc(S(=O)(=O)N2CCCOC2CNC(=O)C(=O)NCc2ccco2)cc1 (centres undefined)
  0.68	/	/	-2.5	/	-1.8	3.8
> COc1ccc(CCC(=O)Nc2sccc2C#N)cc1
  0.75	-1.5	/	/	8%	1.4	2.4
> CCc1ccccc1NC(=O)N1CCC(NC(=O)C(Cc2ccc(OC)c(OC)c2)NC(C)=O)CC1 (centres undefined)
  0.69	/	/	1.0	4%	1.8	0.3
> COc1ccc(-c2cccc(C(=O)Nc3ccc(C)cc3)c2)cc1
  0.73	/	/	3.0	-4%	5.0	4.3
> C=C(C)COc1ccc(-c2ncncc2-c2ccccc2OC)c(O)c1
  0.7	5.3	i	-0.8	6%	-3.0	4.9
> O=C1CC(c2ccccc2Cl)CC(O)=C1C=NCCCO (centres undefined)
  0.66	-5.1	/	-1.6	/	-0.5	1.3
> COc1ccccc1OC(=O)c1ccc(SC)cc1OC
  0.68	/	/	1.5	0%	2.3	1.4
> CCCCn1c(N)c(C(=S)NC(=O)CC(C)(C)C)c(=O)n(C)c1=O
  0.66	6.0	i	-1.4	?	1.0	5.3
> Cc1cccc(C(=O)NC(=S)Nc2ccccc2C(=O)O)c1
  0.65	-6.8	i	7.8	-2%	6.2	-0.1
> CCCCN1C2CCCC1CC(NC(=O)C1CCCCC1)C2 (centres undefined)
  0.73	/	/	-2.2	1%	-0.6	0.2
> NS(=O)(=O)c1ccc(CNC(=O)Cc2cccs2)cc1
  /	-2.9	i	-12	/	-2.3	/
> O=C(CCn1c(=O)[nH]c2ccccc2c1=O)N1CCN(c2ccc(Cl)cc2)CC1
  0.75	/	/	1.4	-4%	-1.3	0.8
> Cc1noc(C)c1C(=O)N1CCC1(C)C(=O)NS(=O)(=O)c1ccccc1Cl (centres undefined)
  /	-2.9	i	2.5	/	/	/
> COc1ccc(NC(=O)N2CCC(CO)(CC3CCCCO3)CC2)c(OC)c1 (centres undefined)
  0.67	-0.3	i	4.3	?	0.6	2.3
> C#CCNC(=O)C[C@@H]1C[C@@]2(C(=O)OC)CC(C)(C)CC=C2N(CCc2ccc(OC)c(OC)c2)C1=O
  /	-1.2	i	0.8	/	/	/
> COc1ccc(OC)c(-c2nc(C(=O)NCC3CCCO3)cc3c2[nH]c2ccccc23)c1 (centres undefined)
  0.73	1.0	i	4.1	/	0.1	-12
> COCCCNC(=O)CCn1nc(-c2ccc(Cl)cc2)ccc1=O
  0.66	-2.4	i	2.2	-2%	-0.3	-0.8
> COc1cc(C=NN2CCCCC2)cc(OC)c1OC
  /	-5.1	i	2.7	-3%	/	/
> CCC(=O)Nc1ccc2c(c1)OC[C@@H](C)N(Cc1ccccc1F)C[C@@H](C)[C@@H](OC)CN(C)C2=O
  /	3.3&2.5	i	2.5	/	/	/
> Cc1nc2cc(NC(=O)N3c4ccccc4CC3C)ccc2n1C (centres undefined)
  0.66	-37	i	1.6	23%	/	-1.5
> Cc1ccccc1-n1c(SCc2c(C)noc2C)nnc1-c1c[nH]c2ccccc12
  0.72	/	/	4.2	-2%	-1.2	4.6
> CC1(C)CC(=O)N(c2ccc(Cl)cc2Cl)C(=O)C1
  0.68	-6.2	i	1.0	/	0.7	1.4
> CN(c1ccc(C(=O)NCC2CCCO2)cc1)S(C)(=O)=O (centres undefined)
  0.66	3.3	i	-2.2	3%	3.8	2.0
> O=C(CSc1ncn[nH]1)Nc1ccc(Br)cc1F
  0.67	/	/	1.1	8%	-1.1	-1.1
> Cn1cccc1-c1cc(C(=O)N/N=C/c2ccc([N+](=O)[O-])cc2)[nH]n1
  /	0.0	i	-2.5	/	4.2	/
> Oc1ccc2nc(Cc3ccccc3)[nH]c2c1
  0.76	/	/	-0.7	1%	3.9	3.9
> COc1ccc(C2C(C(N)=O)=C(C)Nc3nc(-c4ccccc4)nn32)cc1OC (centres undefined)
  0.68	-2.7	i	0.0	24%	9.6	1.7
> COc1ccc(-c2c[n+](CC(=O)N3c4ccccc4Sc4ccccc43)c3n2CCC3)cc1
  0.69	12	i	-1.7	1%	2.0	7.0
> O=C(CC1C(=O)NCCN1CCCc1ccccc1)NCCc1ccccc1Cl (centres undefined)
  0.7	4.9	i	-0.4	-5%	1.0	-6.4
> COc1cccc(C2=NOC(C(=O)N3CCOCC3)C2)c1 (centres undefined)
  0.7	/	/	-2.1	8%	-1.7	-0.3
> CCN(CC)CCNC(=O)CS(=O)Cc1nc(-c2ccccc2Cl)oc1C (centres undefined)
  0.72	/	/	-1.2	5%	-4.5	3.2
> CCOc1ccc(CC(=O)NNC(=S)Nc2ccc(OC)c(OC)c2)cc1
  0.68	-1.9	i	-2.5	14%	2.7	3.3
> COc1ccc(-c2[nH]nc3nc(N4CCN(C(=O)c5ccoc5)CC4)cc(C(F)(F)F)c23)cc1
  /	-3.0	i	-3.4	-16%	/	/
> COc1ccc(CCNC(=O)c2ccc(CNS(=O)(=O)c3ccccc3)cc2)cc1OC
  0.71	/	/	-0.9	/	4.2	1.8
> CCOC(=O)C(Cc1ccccc1)NC(=O)CNC(=O)CNC(=O)OCc1ccccc1 (centres undefined)
  0.69	/	/	-2.3	-19%	1.9	2.7
